TRPML1 inh – qHTS for Inhibitors of the Human Mucolipin Transient Receptor Potential 1 (TRPML1) | Mucolipin-1 (Homo sapiens), Q9GZU1 | TRPML1-inducible cells, Ca2+ dye fluorescence, FDSS; active compounds read low; inhibition of EC80 agonist-evoked calcium signal | activity change, negative = inhibition, % (concentration not given with the values) | 390,000 compounds, 0.02% hits | AID 624415, 2012; in the data active means activity change below about -50%; inconclusive means about -30% to -50%; inactive means above about -30%;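 note: stimulus is agonist 54-4 at its EC80 concentration; % is set by controls: 0 for no effect and ±100 for the full control effect; the text of the record puts the active cut at -80%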
Target sequence (Q9GZU1 whole entry, looked up): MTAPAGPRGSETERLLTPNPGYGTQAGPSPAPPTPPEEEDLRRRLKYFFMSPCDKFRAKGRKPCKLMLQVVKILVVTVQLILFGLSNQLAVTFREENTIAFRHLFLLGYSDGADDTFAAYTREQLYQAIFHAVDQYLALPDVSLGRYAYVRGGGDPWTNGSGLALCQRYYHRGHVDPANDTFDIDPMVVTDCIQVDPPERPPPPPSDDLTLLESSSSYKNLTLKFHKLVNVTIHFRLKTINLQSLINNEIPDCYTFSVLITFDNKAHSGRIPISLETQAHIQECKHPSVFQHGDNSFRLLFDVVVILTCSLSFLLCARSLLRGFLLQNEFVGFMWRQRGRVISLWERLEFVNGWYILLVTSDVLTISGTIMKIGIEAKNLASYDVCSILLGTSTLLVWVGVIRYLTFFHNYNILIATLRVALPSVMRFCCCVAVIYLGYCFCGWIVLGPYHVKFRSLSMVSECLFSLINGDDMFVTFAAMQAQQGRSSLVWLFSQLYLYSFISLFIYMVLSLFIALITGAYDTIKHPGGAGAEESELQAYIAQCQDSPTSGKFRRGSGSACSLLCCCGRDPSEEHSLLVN
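TRPML1-DL cells, Tet-induced overnight (~16 h, 37 °C) at 1,500 cells/well, were loaded with Ca8 no-wash dye plus quencher for 45-90 min at room temperature. Compounds were pinned during FDSS kinetic reading; agonist 54-4 at EC80 (4 uM final) then added.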
Menin-MLL FL inh – qHTS Assay for Inhibitors Targeting the Menin-MLL Interaction in MLL Related Leukemias: Competition With Fluorescein Labeled MLL-derived Peptide; Fluorescence polarization, fluorescein-MLL peptide displacement from menin; FP activity change, % at 61.4 µM; 290,000 tested, under 10 active; AID 1766, 2009; inconclusive = falling polarisation curve, or a change in total fluorescence; inactive = total fluorescence flat and polarisation flat or rising; no compound was filed as active; the % refers to the polarisation; negative = inhibition;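 note: % of control where 0% means no effect; inhibitors lower the polarisation; unlabelled MLL peptide was the positive control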
TRPML1 ag – qHTS for Agonists of the Human Mucolipin Transient Receptor Potential 1 (TRPML1) | activation, % (no concentration beside the values) | Mucolipin-1 (Homo sapiens), Q9GZU1 | 410,000 compounds, 0.12% hits | TRPML1-expressing cells, Ca2+ dye fluorescence, FDSS; host cell line not named in the record; reference of the full effect not given here; in the data active = activation above about 50%; inconclusive = about 30% to 50%; inactive = below about 30%; note: 0% is about no effect; the text of the record puts the active cut at 80%
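Tetracycline-induced TRPML1-DL cells are seeded and incubated overnight before loading with a no-wash Ca2+ dye and quencher. Agonist activity is taken from the 110 s fluorescence read following compound pin-transfer on an FDSS, before EC80 54-4 challenge.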
TRPV1 potentiator – HTS Assay for Compounds that Act as Potentiators of the Vanilloid Receptor 1 | Transient receptor potential cation channel subfamily V member 1 (Homo sapiens), Q8NER1 | TRPV1-expressing cells, Fluo-8 calcium influx, capsaicin EC20 potentiation; host cell line not named in the record; control for the full effect not named in the record | potentiation, % at 8.33 µM | 320,000 compounds, 0.02% hits | AID 540277, 2011; active means potentiation above 80%; inconclusive means 30% to 80%; inactive means below 30%; note: 0% is about no effect
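TRPV1-expressing cells were cultured overnight at 35.5C and loaded with Fluo-8 calcium dye for 40 to 90 min at room temperature. After a 10 s baseline, compound was added and calcium influx was read kinetically for 3 min (ex 480/em 520 nm).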
PINK1 expr mod – A Quantitative High throughput Screen to Identify Chemical Modulators of PINK1 Expression; 410,000 compounds, 0.2% hits; PINK1 immunofluorescence, high-content cytometry, 24 h; Potency, µM (series often up to 76.6 µM), without a hit: at the top dose activation (PINK1 increase), hits mostly activators; active = well fitted activation curve with a large enough effect; inconclusive = small, poorly fitted or top-dose-only effect; inactive = flat fitted curve, though single readings scatter; cell line not stated here;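 note: potency is the fitted concentration of half-maximal effect; % of control where 0% means no effect; nearly all actives have a fitted effect of over 65% in size; a mitochondrial uncoupler was the plate control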
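Measures PINK1 amount and localization on or inside mitochondria by immunofluorescence. Stable cells get compounds at 5 concentrations for 24 hours before fixation and staining; CCCP controls included.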
ClpP mod – qHTS Assay for Activators of ClpP. ATP-dependent Clp protease proteolytic subunit (Bacillus subtilis (strain 168)), P80244. purified B. subtilis ClpP, FRET peptide cleavage, 20 min. Potency, µM (highest dose often 57.5 µM), inactives show top-dose activity change, negative = active. 340,000 compounds, 1.9% hits; active = well fitted falling curve with a large enough effect; inconclusive = small, poorly fitted or top-dose-only effect; inactive = no such curve, though single readings can be large or run the other way; note: potency is the fitted concentration of half-maximal effect; the source files actives as falling curves though it sought activators and does not explain the sign; nearly all actives have a fitted effect of over 65% in size; many hits overshoot -100%
Target sequence (P80244 whole entry, looked up): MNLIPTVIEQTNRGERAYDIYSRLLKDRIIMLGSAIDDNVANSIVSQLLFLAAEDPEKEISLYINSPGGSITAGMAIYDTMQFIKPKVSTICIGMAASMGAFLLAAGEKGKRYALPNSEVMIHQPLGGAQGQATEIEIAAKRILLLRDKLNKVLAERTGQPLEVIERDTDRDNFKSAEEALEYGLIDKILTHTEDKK
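ClpP 10 microg/mL final, pH 8 Tris/KCl buffer with BSA, glycerol, Tween-20; compound pinned in; FRET-FV substrate; RT 20 min; Ex320/Em430; ΔFRET vs ADEP 5.8 microM, DMSO, no enzyme.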
Sfp inh – qHTS Assay for Inhibitors of Bacillus subtilis Sfp phosphopantetheinyl transferase (PPTase). 4'-phosphopantetheinyl transferase ffp (Bacillus subtilis), Q9F4F7. Biochemical Sfp PPTase activity, qHTS. Potency, µM, without a hit: max response, negative = inhibition, actives largely listed as inhibitors. 310,000 compounds, 3.5% hits. AID 1490, 2009; active = well fitted inhibition curve with a large enough effect; inconclusive = small, poorly fitted or top-dose-only effect, or another doubt; inactive = no such curve, though single readings can be large or run the other way;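 note: the enzyme is Sfp with the accession as filed and its product quenches rhodamine fluorescence; potency is the fitted concentration of half-maximal effect; 0% = enzyme reaction without inhibitor and -100% = no enzyme wells; top concentration of the series not given in the record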
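Step 1, compound plus 15 nM Sfp-PPTase, 15 min, room temperature. Step 2, add rhodamine-CoA (5 uM) and BHQ-2-YbbR (12.5 uM). Step 3, read 525/598 nm fluorescence at 0 and 30 min.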
* marks the source's active call; other numbers are inactive results; ? = inconclusive; · = no result given; [ ] = another dose, or the depositor's remark. Rows are unselected. Share with any hit: about 4.4%.

canonical_smiles,TRPML1 inh,Menin-MLL FL inh,TRPML1 ag,TRPV1 potentiator,PINK1 expr mod,ClpP mod,Sfp inh
CC(=O)Nc1sc2c(c1C#N)CCN(Cc1ccccc1)C2,13,-15,0.5,2,1.1%,-3.9%,-14%
O=C(O)/C(=C1\OC(=O)c2ccccc21)c1ccccc1,-22,1.3,-0.4,-5,1.1%,61%,20%
CCCCN1CC(COCc2ccccc2)Oc2cccc(OCCN3C(=O)[C@@H]4[C@H](C3=O)C3C=C[C@H]4C3)c2S1(=O)=O (some centres not stated),-21,·,?,·,0.4%,-2.7%,·
COc1cc(NC(=O)CSc2nc3ccccc3n2-c2ccccc2)c(C)cc1[N+](=O)[O-],-6,-1.5,0.4,14,3.8%,1.8%,3%
COc1ccc(CCC(=O)OCC(=O)N(CC(C)C)c2c(N)n(Cc3ccccc3)c(=O)[nH]c2=O)cc1,23,·,0.8,-3,1.5%,-1.0%,·
CCN(CC)CCCNC(=O)c1oc2c(c1C)-c1nn(Cc3ccc(Cl)cc3)cc1CC2,17,·,0.6,·,1.0%,16µM*,·
CCn1c(SC(C)C(=O)NC2CCCc3ccccc32)nnc1-c1cccs1 (configuration not stated),-1,3.6,1.2,18,-1.0%,-26%,7%
CCCCN(C)C(=O)c1c[nH]c2ccc(S(=O)(=O)N3CCOCC3)cc2c1=O,18,-1.3,-0.2,21,0.8%,4.1%,16%
COc1ccccc1N1CCN(C(=O)CSc2nc(-c3ccco3)cc(C(F)(F)F)n2)CC1,-19,11,0.0,12,1.6%[38.3 µM],-0.4%,?
COc1cc(C2=NOC(C(=O)N3CCCc4ccccc43)C2)cc(OC)c1OC (configuration not stated),-7,2.7,0.1,0,11%[38.3 µM],-6.3%,5%
COc1ccc(CCN2CC(C(=O)OCc3ccccc3Cl)CC2=O)cc1OC (configuration not stated),13,·,1.7,·,4.6%,·,·
Cc1c(CCC(=O)NCc2ccc(F)cc2)c(=O)oc2cc(O)ccc12,39,·,-1.4,·,4.6%,4.2%,·
CC1CCC(C(=O)NNC(=O)c2cc(-c3ccco3)[nH]n2)CC1 (configuration not stated),20,-0.1,0.0,?,-1.2%,·,9%
COc1ccc(F)cc1C(=O)C1CCCN(C(=O)c2ccccc2N(C)C)C1 (configuration not stated),-10,1.7,1.4,-16,4.1%,-3.4%,1%
N=c1sccn1CC(=O)Nc1cccc2ccccc12,-10,-1.2,-0.1,4,1.2%,-0.9%,11%
COc1ccc(-n2c(=O)c(-c3cccc(F)c3)nc3cncnc32)cc1,·,-0.1,·,·,11%,·,25%
CCc1noc(C)c1C(=O)OCC(=O)Nc1ccc(F)cc1Cl,-18,·,0.1,2,0.4%,-4.1%,·
Cc1ccc(Oc2nc3ccccn3c(=O)c2/C=C(\C#N)C(=O)NC2CCS(=O)(=O)C2)cc1 (configuration not stated),-1,?,-0.1,2,1.3%,4.2%,10%
CCOC(=O)N1CCN(c2ccc(Cl)cc2)CC1,-21,1.7,2.8,-15,1.5%,-2.7%,2%
O=C(CCCN1C(=O)c2ccccc2C1=O)NCc1ccc(F)cc1,-12,1.6,-0.3,-31,-0.6%,0.5%,25%

The results go on:
canonical_smiles,TRPML1 inh,Menin-MLL FL inh,TRPML1 ag,TRPV1 potentiator,PINK1 expr mod,ClpP mod,Sfp inh
CCN(CC(=O)Nc1ccc(NC(C)=O)cc1)C(=O)c1ccc2c(c1)OCCO2,-7,·,-0.9,6,0.5%,-2.2%,·
Cc1cc(C)c(C#N)c(N2CCCC2)n1,20,2.9,0.6,-11,4.1%[38.3 µM],3.5µM*,-3%
O=S(=O)(Cc1ccccc1)N1CCNCC1,-11,0.8,0.7,8,2.5%,·,15%
N#CCCn1cc(C(=O)CN2C(=O)NC3(CCCCCC3)C2=O)c2ccccc21,-11,·,-0.1,6,-0.6%,-3.8%,·
CCOC(=O)C(C)Sc1nnc(NC(=O)c2cccc([N+](=O)[O-])c2C)s1 (configuration not stated),-7,-1.8,-0.1,11,11%,-3.2%,16%
Cc1ccc2ccc3c(c2n1)NS(=O)(=O)c1ccc(C(F)(F)F)cc1-3,-10,·,1.3,4,-0.6%,·,·
CN(C)/[N+]([O-])=N/Oc1ccc([N+](=O)[O-])cc1C(F)(F)F,-12,·,0.5,·,-1.6%,·,·
CC(C)(C)c1ccc(NC(=O)c2cc(C3CCCN(S(=O)(=O)c4cccc5cccnc45)C3)on2)cc1 (configuration not stated),·,·,-0.2,·,-0.8%,-2.8%,·
CCc1c(O)nc(SCC(N)=O)n(-c2ccccc2F)c1=O,-13,4.0,0.2,1,1.0%[38.3 µM],-0.7%,11%
CCCNC(=O)c1ccc2c(c1)ncn2-c1ccc(C)cc1C,1,·,0.0,·,-0.8%,-1.3%,·
CCOC(=O)Cc1nnc(NC(=O)c2ncn[nH]2)s1,0,5.6,-1.0,-2,-2.2%,1.7%,14µM*
CN(C(=O)CCc1nnc(CCCCc2ccccc2)o1)C1CC(C)(C)NC(C)(C)C1,43,2.7,-0.4,-5,-1.7%,0.6%,-4%
Cc1ccc(N2NC(=O)/C(=C\c3cc4c(cc3[N+](=O)[O-])OCO4)C2=O)cc1C,16,0.3,0.7,-1,6.2%,-2.8%,-17%
COc1cccc(NC(=O)c2oc3ccc(S(=O)(=O)N4CCC5(CC4)OCCO5)cc3c2C)c1,6,·,1.7,·,9.1%,58%,·
CCCC(CCC)c1nnc(NC(=O)c2ccco2)s1,18,-5.8,-0.5,-34,5.4%,16%,19%
CC(C)c1ccc(C2=NC(c3ccncc3)=Nc3ccc(F)cc3N2)cc1,29,·,1.7,·,0.9%,2.3%,·
O=C(Nc1ccc2c(c1)OCO2)C1CC(c2ccccc2Cl)=NO1 (configuration not stated),10,-1.3,-0.4,-13,·,3.2%,9%
CCOC(=O)c1cccc(NS(=O)(=O)c2cc3c(cc2C)NC(=O)CO3)c1,-1,·,-0.5,·,-1.0%,-2.7%,·
CC(Oc1ccccc1)C(=O)N1CCCc2ccccc21 (configuration not stated),6,0.3,-0.9,-40,-9.2%[38.3 µM],-0.5%,4%
C=CCOC(=O)COc1ccc2c(C)c(C)c(=O)oc2c1,8,-0.2,-0.1,-17,1.4%[38.3 µM],13µM*,-6%

(cont.)
canonical_smiles,TRPML1 inh,Menin-MLL FL inh,TRPML1 ag,TRPV1 potentiator,PINK1 expr mod,ClpP mod,Sfp inh
CCCCN(C(=O)C1CC1)C1CCS(=O)(=O)C1 (configuration not stated),-12,·,0.9,?,-0.1%,·,·
CCCc1cc(=O)oc2c(C)c(OCC(=O)N3CCC(C(=O)O)CC3)ccc12,·,-2.0,·,3,-1.3%,4.3%,2%
O=C(COC(=O)CN1C(=O)COc2ccccc21)NC1CCCCC1,0,·,-0.1,-22,-0.3%,0.3%,·
CC(=O)Nc1ccc(-c2cc(-c3ccccc3)nc(-c3ccccc3)n2)cc1,-2,7.4,2.8,-11,6.0%,28µM*,1%
O=C(Cn1ncc2c3ccccc3n(Cc3ccccc3)c2c1=O)Nc1ccccc1C(F)(F)F,26,·,2.8,·,7.2%,-5.2%,·
O=C(O)c1cc(-c2cc(C(=O)O)c3ccccc3n2)ccc1O,-7,·,2.0,·,-2.1%,·,·
CC1CC(C)CN(c2ccc(S(=O)(=O)N3CCOCC3)cc2)C1 (configuration not stated),-17,·,0.5,-8,-0.8%,-2.8%,-8%
Cc1ccc2c(C)c(C(=O)N(C)Cc3ccncn3)oc2c1C,-5,·,0.2,-11,2.3%,0.3%,9%
NNC(=O)CC(=O)NC1(Cc2ccc(O)cc2)CCCCC1,1,6.5,-0.7,-15,3.5%,·,2%
CCCCn1nnnc1C(c1ccccc1)N1CCN(c2cc(C)ccc2C)CC1 (configuration not stated),·,·,?,·,0.9%,0.1%,·
Cc1cc(NS(=O)(=O)c2ccc(Nc3nc(-c4sc(C)nc4C)cs3)cc2)no1,·,2.9,·,6,·,·,0%
O=C(COc1ccc(Cl)cc1[N+](=O)[O-])N1CCCCC1,3,-7.0,-0.2,-9,-0.5%,·,19%
CCOC(=O)c1c(C)sc(-c2c(-c3cccc(Cl)c3)[nH]c3c2c(=O)n(C)c(=O)n3C)c1O,13,·,?,·,6.1%,1.8%,·
N=c1c(C(=O)NCc2ccccc2)cc2c(=O)n3ccccc3nc2n1Cc1ccco1,-4,2.7,1.1,-4,2.1%,-17%,-16%
Cc1ccc(-n2ncc3c(=O)n(CC(=O)N4CCCCCC4)cnc32)cc1,-7,1.8,-0.8,15,-0.1%,?,11%
CN(C)CCCO/N=C(\c1ccccc1)c1ccncc1,8,-0.4,-0.4,-8,3.5%,1.4%,?
Cn1c2ccccc2c2c(C(=O)N3CCN(c4ccc(F)cc4)CC3)cn(C3CCCC3)c(=O)c21,3,-0.5,2.0,1,1.3%,?,6%
COc1ccc(CNC(=O)NC2CCCCC2)cc1,4,-1.7,-0.7,-5,6.9%[38.3 µM],1.5%,2%
COc1ccc(C2=NCN(c3ccc(C)cc3)C(=S)N2)cc1,17,2.1,2.6,8,-0.1%,0.0%,16%
O=C(O)/C=C\C(=O)Nc1ccc(Oc2ccc(Br)cc2)cc1,-6,-1.6,-0.2,8,-0.5%,·,9%
CCOc1ccc(C(=O)NCC(=O)OC(C)C(=O)NCc2ccco2)cc1OCC (configuration not stated),19,2.4,-0.2,·,3.0%,-0.6%,7%
CCOCCCn1c(=NC(=O)c2ccco2)c(C(=O)OCC)cc2c(=O)n3cccc(C)c3nc21,-11,4.2,-1.0,-1,4.4%,4.0%,13%

Screening data (PubChem BioAssay)
